# Compound activity from PubChem BioAssay.
# VDR inh: blocks the human vitamin D receptor; VDR-SRC2-3 peptide fluorescence polarization, 2 h; Potency, µM, for inactives: max response, negative = inhibition, hits mostly inhibitors; 400,000 compounds, 0.93% hits; active means well fitted inhibition curve with a large enough effect; inconclusive means small, poorly fitted or top-dose-only effect, or another doubt; inactive means no such curve, though single readings can be large or run the other way; further: series mostly up to about 120 µM
# Target sequence (P11473 whole entry, looked up): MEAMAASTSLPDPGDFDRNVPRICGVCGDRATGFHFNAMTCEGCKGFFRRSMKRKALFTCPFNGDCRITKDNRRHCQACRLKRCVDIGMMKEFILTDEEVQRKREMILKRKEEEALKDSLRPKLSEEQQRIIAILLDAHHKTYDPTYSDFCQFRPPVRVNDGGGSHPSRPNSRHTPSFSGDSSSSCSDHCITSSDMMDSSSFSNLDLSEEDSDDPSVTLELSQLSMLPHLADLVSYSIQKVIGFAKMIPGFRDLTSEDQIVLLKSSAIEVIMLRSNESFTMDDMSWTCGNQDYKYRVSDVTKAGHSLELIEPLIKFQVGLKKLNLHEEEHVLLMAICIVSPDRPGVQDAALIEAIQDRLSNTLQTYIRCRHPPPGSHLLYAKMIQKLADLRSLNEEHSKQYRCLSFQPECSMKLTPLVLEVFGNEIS
#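 Measured by FP: displacement of SRC2-3 coactivator peptide from VDR by library compounds, following a two-hour ambient incubation.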
# The depositor's hits bear a star; u = inconclusive; & = joins results of further samples. On the % scale 0 is the no-effect control and ±100 the full control effect; potency means the concentration at half of the fitted maximal effect. A portion of the library (hit frequency here may not be typical).
VDR inh,mol
22µM*,CC1C/C(=C/c2ccncc2)C(=O)/C(=C/c2ccncc2)C1 (stereo not given)
7%,CSc1cccc(NC(=O)CN(C)S(=O)(=O)c2ccc(F)cc2)c1
u,O=C(Cn1cc2c(n1)CCCC2)NCCCN1CCCC1
6%,O=C(O)C1C2C=CC(C2)C1C(=O)NC1CCN(Cc2ccccc2)CC1 (stereo not given)
-6%,Cc1c(Br)c(C(F)(F)F)nn1CC(=O)N1CCCC1
0%,COC(=O)c1cc(-c2c(C)oc3cc(OC)ccc3c2=O)c(C)o1
-8%,CC1=CC(C)(C)Nc2ccc(OC(=O)CCN3C(=O)c4ccccc4C3=O)cc21
-15%,CCn1c(C(=O)O)c(CC(=O)Nc2ccc(Br)cc2C)c2ccccc21
14%,CCN(CC)S(=O)(=O)c1cccc(C(=O)Nc2cc3oc4ccccc4c3cc2OC)c1
0%,COc1cccc(/C=N/NC(=O)c2ccc(=O)n(C)c2)c1O
-4%,CCOc1ccccc1CN1CCNC(=O)C1CC(=O)NCc1nc(C)cs1 (stereo not given)
7%,CCN(CC)c1nc(Oc2ccc(C(=O)NN)cc2)nc(Oc2ccc(C(=O)NN)cc2)n1
3%,CCSc1nc2c(cnn2-c2ccc(C)c(C)c2)c(=O)[nH]1
-22%,CCOC(=O)c1cn(-c2ccccc2)nc1-c1cccnc1
-16%,OC(COCC1COc2ccccc2O1)CN1CCN(c2ccc(F)cc2)CC1 (stereo not given)
-2%,CC(OC(=O)c1cccnc1)C(=O)Nc1ccc2c(c1)OCO2 (stereo not given)
-13%,O=C(Nc1cccc(F)c1)/C(=C\c1ccco1)NC(=O)c1ccco1
13%,Cc1c(C(=O)NC(C)C)sc2ncn(CC(=O)N3CCC(C)CC3)c(=O)c12
0%,Cc1cc(C(=O)OCC(=O)c2ccc3c(c2)NC(=O)CO3)c2ccccc2n1
4%,O=C(Cn1c(=O)n(-c2ccccc2)c(=O)c2ccc(C(=O)NCc3ccc4c(c3)OCO4)cc21)Nc1ccc(Br)cc1F
-22%&4%,CC(=O)Nc1ccc(Nc2nnc(-c3ccc(C)c(S(N)(=O)=O)c3)c3ccccc23)cc1
8%,Cc1cccc(N2CCN(c3ccc(NC(=O)/C=C(/C(=O)O)c4ccccc4)cc3)CC2)c1
u,Cc1ccc(NS(=O)(=O)c2cc(C(=O)O)ccc2Cl)cc1
-10%,CC(=O)C1(O)C(C)CC2C3CCC4CC(O)CCC4(C)C3=CCC21C (stereo not given)
5%,Cc1cc(C)c2c(c1)NC(=O)C2(O)c1c[nH]c2ccccc12 (stereo not given)

# A section from the list above:
VDR inh,mol
22µM*,CC1C/C(=C/c2ccncc2)C(=O)/C(=C/c2ccncc2)C1 (stereo not given)
7%,CSc1cccc(NC(=O)CN(C)S(=O)(=O)c2ccc(F)cc2)c1
u,O=C(Cn1cc2c(n1)CCCC2)NCCCN1CCCC1
6%,O=C(O)C1C2C=CC(C2)C1C(=O)NC1CCN(Cc2ccccc2)CC1 (stereo not given)

# The results go on:
VDR inh,mol
-5%,CS(=O)(=O)N(Cc1ccccc1)c1ccc(C(=O)Nc2ccccc2Sc2ccccc2)cc1
-8%,CCCn1ncc(CN2CCN(Cc3ccc(C)o3)C(CCO)C2)c1C (stereo not given)
-17%,C=CCOc1c(Br)cc(/C=N/O)cc1OCC
6%,CN(CCc1ccccn1)S(=O)(=O)c1ccccc1F
-7%,CCc1nnc(NC(=O)c2cc(-c3cccnc3)nc3ccccc23)s1
9%,Clc1ccc(CN2CCc3nc(N4CCN(c5ccccn5)CC4)ncc3C2)cc1
-11%,COC(=O)c1nc2n(n1)C(c1cccc(Cl)c1)C1=C(CC(C)(C)CC1=O)N2 (stereo not given)
-28%,COc1ccc2cc(C3CC(c4cccs4)=NN3S(C)(=O)=O)c(Cl)nc2c1 (stereo not given)
-2%,Cc1nnc(CN(C)Cc2cn[nH]c2-c2ccc(-c3ccccc3)cc2)o1
5%,CCc1ccccc1NC(=O)Nc1cnccn1
-8%,CC1CCc2c(sc3nn[nH]c(=O)c23)C1 (stereo not given)
4%,CC1CCCC(NC(=O)CCNC(=O)c2ccc(Br)cc2)C1C (stereo not given)
-15%,COc1ccc(Cl)cc1NC(=O)Cn1c(=O)n(Cc2ccc(F)cc2)c(=O)c2cccnc21
10%,CN1CCN(CCN2CCn3c2nc2ccccc23)CC1
-1%,N#Cc1c(-n2ncnc2-c2ccc(F)cc2)sc2c1CCCCC2
-3%,O=C(Nc1cccc(-c2nnc(-c3ccccc3)o2)c1)C1CC1
-14%,CCNC(=S)NNC(=O)c1cc(CC(C)C)nc2ccccc12
1%,Cc1ccc(NC(=O)c2ccc3[nH]c(C)cc(=O)c3c2)cc1
3%,Cc1cccc(NC(=O)C2CCN(S(=O)(=O)c3ccc4c(c3)NC(=O)CO4)CC2)c1
-11%,CCN(CC)CCCn1c2c(c(SCC(=O)Nc3ccccc3Cl)nc1=O)CCC2
4%,CCCCOc1ccc(C(=O)NCCC(=O)NCCCC(=O)OCC)cc1
-7%,N#CC1(NC(=O)COC(=O)c2nc(Cl)ccc2Cl)CCCCC1
0%,CNC(=S)N(Cc1cccs1)Cc1cc2ccc(OC)cc2[nH]c1=O
2%,CCCC(=O)Nc1nnc(COC)s1
6%,COc1ccc(OC)c(C(=O)Cn2nnc(-c3ccc(N4CCOCC4)cc3)n2)c1

# Quoted at random: 4 records from the list
VDR inh,mol
-15%,COc1ccc(Cl)cc1NC(=O)Cn1c(=O)n(Cc2ccc(F)cc2)c(=O)c2cccnc21
-7%,N#CC1(NC(=O)COC(=O)c2nc(Cl)ccc2Cl)CCCCC1
-11%,CCN(CC)CCCn1c2c(c(SCC(=O)Nc3ccccc3Cl)nc1=O)CCC2
4%,CC1CCCC(NC(=O)CCNC(=O)c2ccc(Br)cc2)C1C (stereo not given)

# Continued.
VDR inh,mol
-14%,COCCn1nnnc1CN(Cc1cccnc1)Cc1cc2cc(OC)ccc2[nH]c1=O
-22%,N=c1c2c(-c3ccccc3)c(-c3ccccc3)n(Cc3ccco3)c2ncn1CCCO
-12%,O=C(NCC1CCCO1)C(c1ccc(N2CCOCC2)cc1)N(C(=O)Cn1nnc2ccccc21)c1ccccc1F (stereo not given)
-2%,O=C(COC(=O)c1ccccc1NC(=O)c1ccco1)NC1CC1
-1%,CC(NC(=O)c1nn(C)c2c1CS(=O)(=O)c1ccccc1-2)c1ccccc1 (stereo not given)
21%,O=c1cc(CO)oc(CN2CCC(Cc3ccccc3)CC2)c1O
0%&-5%,Cn1c(=O)[nH]c2nc[nH]c2c1=O
-20%,COC(=O)CNC(c1ccccc1)c1cc(Br)ccc1NC(=O)c1cc(OC)c(OC)c(OC)c1 (stereo not given)
-2%,Cc1nn(CC(=O)Nc2ccccn2)c(=O)c2ccccc12
u,CCN(CC)S(=O)(=O)c1cccc(C(=O)N2CCCCC2)c1
-16%,CCc1ccc(NC(=O)Cn2nnc(C(=O)NCc3ccc(OC)cc3)c2N)cc1
-15%,Cc1ccc(OCCn2cc(C(=S)N3CCCC3)c3ccccc32)cc1C
15%,C=CCn1c(O)c(N=NC(=S)Nc2ccccc2C)c2cc(S(=O)(=O)N3CCOCC3)ccc21
-18%,Nc1cc2c(cc1Br)-c1ccccc1C2=NO
-3%,NCC12CC3CC(C1)CC(c1ccc(Cl)cc1)(C3)C2
11%,Cc1ccc(C)c(N2CCN(c3cc(C)nc4c(-c5ccc(Cl)cc5)c(C)nn34)CC2)c1
-18%,CCOc1cc(/C=C2\CCCC(C(=O)C(F)(F)F)=C2O)ccc1O
-19%,COc1cccc2cc(-c3nc(-c4cccs4)no3)c(=O)oc12
-8%,COC(=O)c1ccc(COC(=O)c2ccc(CS(=O)(=O)c3ccc(C)cc3)cc2)cc1
6%,COc1ccc(C2Nc3ccccc3C(=O)N2c2ccc(C)cc2)cc1Cn1nnc2ccccc21 (stereo not given)
-18%,CCN1CCN(Cc2cccc(Oc3ccccc3)c2)CC1
-11%,Cc1ccc(S(=O)(=O)N2CCN(C(=O)COC(=O)C3CCC3)CC2)cc1
-25%,CC(C)(C)OC(=O)N1CCCC(C(=O)Nc2cccc(C(=O)N3CCCC3)c2)C1 (stereo not given)
-14%,O=C(CCCc1ccccc1)NCCc1ccc(F)cc1
-7%,C/C(=N\NC(=O)CNC(=O)c1ccc(Br)cc1)c1ccco1

# Further records.
VDR inh,mol
11%,Cc1cc(C)c(C(=O)COC(=O)CCNS(=O)(=O)c2c(Cl)cccc2Cl)cc1C
35µM*,CO/N=C(/C(=O)N[C@@H]1C(=O)N2C(C(=O)O)=C(CSc3cnns3)CS[C@H]12)c1csc(N)n1
9%,Cc1ccc([N+](=O)[O-])c(OCCN2CCc3ccccc3C2)c1
17%,COC(=O)c1ccccc1NC(=O)Nc1cnccn1
-9%,CCc1nnc(NC(=O)CSc2nnc(C(C)NC(=O)c3ccccc3)n2C)s1 (stereo not given)
2%,Cc1ccc(NCC(O)Cn2cnc3c2c(=O)n(C)c(=O)n3C)cc1 (stereo not given)
u,COc1ccc(NC(=O)c2nc(S(=O)(=O)Cc3ccc(C)cc3)ncc2Cl)cc1
u,COc1ccccc1CNC(=O)CC(NS(=O)(=O)c1ccc(C)cc1)c1ccco1 (stereo not given)
-1%,CCCCCCCCCCCCC/C=C/[C@@H](O)C(CO)NC(C)=O (stereo not given in full)
-3%,CC(C)(C)NC(=O)NC(=O)COc1ccccn1
-8%,COc1ccc(S(=O)(=O)N2CCc3ccccc32)cc1C(=O)N1CCN(C=O)CC1
-13%,CC(=O)NC(=O)NC1CSCC1OC(C)=O (stereo not given)
2%,CCn1c(SCC(=O)NNC(=O)Cc2ccccc2)nnc1-c1ccncc1
4%,Cc1ccc(S(=O)(=O)c2nc(-c3ccc(F)cc3)oc2N2CCOCC2)cc1
-9%,COc1ccc(N2CCN(C3CCCN(C(=O)CN4CCOC4=O)C3)CC2)cc1 (stereo not given)
-2%,COC(=O)[C@H]1[C@H](C(=O)OC)[C@@H](C(=O)OC)N(c2ccc(OC)cc2)[C@@H]1C(=O)OC
-1%,O=C(NC1CCCC1)c1ccc(Cl)s1
-2%,Cc1cc(C(=O)N/N=C/c2cccc([N+](=O)[O-])c2O)n[nH]1
-3%,CC1CCN(c2c(NCC3CCC(C(=O)N4CCCC(C)C4)CC3)c(=O)c2=O)CC1 (stereo not given)
3%,CCC1Nc2ncnc(N3CCOCC3)c2N(Cc2ccccc2)C1=O (stereo not given)
-23%,Cc1ccc(NC(=O)CNC(=O)OCc2ccccc2)cc1C
5%,CCOC(=O)c1ccc(S(=O)(=O)n2c(=O)oc3ccccc32)cc1
11%,CCOC(=O)c1cccc(NC(=O)C2CCCN(S(=O)(=O)c3cnc[nH]3)C2)c1 (stereo not given)
7%,COc1cc(SC)ccc1C(=O)OCC(=O)NCC(C)C
u,COCc1cc(N2CCCCC2)nc(-c2ccccc2)n1

# Continuation.
VDR inh,mol
1%,Cc1ccc(CN2CCCn3nc(C(=O)NCCc4ccc(Cl)cc4)cc3C2=O)cc1
0%,O=C1SCCC1NS(=O)(=O)c1ccc([N+](=O)[O-])cc1 (stereo not given)
8%,Cc1ccc(OC(=O)c2cc(-c3ccc(Cl)cc3)on2)c(C)c1
7%,NC(=O)C1CCN(C(=O)Nc2ccccc2)CC1
-25%,Cc1ccc(S(=O)(=O)C2(C(=O)NCc3ccc4c(c3)OCO4)CC2)cc1
-7%,COc1cc(-c2c(C#N)c(N)nc3[nH]c(=S)[nH]c(=O)c23)ccc1O
-12%,CCCCn1c(N)c(N(CCC(C)C)C(=O)c2ccc3ccccc3c2)c(=O)[nH]c1=O
-4%,CCOc1cccc(CN2CCC(n3nccc3NC(=O)c3ccc4c(c3)OCO4)CC2)c1
-7%,O=C(NCCCNC(=O)c1cccnc1)c1ccc(Cl)cc1
-1%,Nc1nc(NCc2ccccc2Cl)n(-c2ccccc2)n1
-3%,CCOC(=O)N/N=C/c1ccc(C)o1
-2%,CC(O)c1c(-c2ccccc2)nn(C)c1Cl (stereo not given)
1%,c1ccc(-c2cnc(-c3ccccc3)nn2)cc1
-24%,CCOc1ccc(CC(=O)C2C(=O)CC(C)(C)CC2=O)cc1OCC
-18%,COC(=O)CCC(=O)N1CCc2cc(S(=O)(=O)N3CCc4ccccc43)ccc21
-18%,O=C(NCC(=O)N1CCN(S(=O)(=O)c2cccc(F)c2)CC1)c1ccc(Br)o1
15%,CCn1cc(C(=O)N(C)c2cc(C)ccc2OC)c2cc(OC)c(OC)cc2c1=O
2%,CC(NC(C(=O)c1ccccc1)c1ccccc1)c1ccccc1 (stereo not given)
-16%,CS(=O)(=O)N(CC(=O)Nc1ccccc1C(=O)N1CCCC1)c1ccc2c(c1)OCO2
2%,CCOc1ccccc1NC(=O)c1nn(-c2ccc(C)cc2)c(=O)n(C)c1=O
-20%,COc1ccc(OC)c(NC(=O)c2nc(-c3ccccc3)oc2C)c1
0%,COc1cc(OC)cc(C(=O)Nc2cccc(NC(C)=O)c2)c1
3%,CCOC(=O)N1CCN(C(=O)c2cc3c(s2)-c2ccccc2OC3)CC1
-18%,CCN(CC)CCCNC(=S)N(CCO)Cc1cc2cc3c(cc2[nH]c1=O)OCO3
-6%,Cc1ccc(C)c(S(=O)(=O)NCC(=O)Nc2ccc3c(c2)OCO3)c1
-5%,CN(CC(=O)NCc1cccnc1)S(=O)(=O)c1cc(Cl)ccc1Cl
-3%,O=C1C(C=NCCCN2CCCC2=O)=C(O)c2ccccc21

# A different layout for some results above.
COc1cccc(/C=N/NC(=O)c2ccc(=O)n(C)c2)c1O
  VDR inh = 0%
CCOc1ccccc1CN1CCNC(=O)C1CC(=O)NCc1nc(C)cs1 (stereo not given)
  VDR inh = -4%
CCN(CC)c1nc(Oc2ccc(C(=O)NN)cc2)nc(Oc2ccc(C(=O)NN)cc2)n1
  VDR inh = 7%
CCSc1nc2c(cnn2-c2ccc(C)c(C)c2)c(=O)[nH]1
  VDR inh = 3%
